Screens (PubChem)
PolyA inhibitor – blocks polyadenylation in yeast reporter cells | S. cerevisiae SKY197-pL101 polyadenylation reporter, beta-gal luminescence; efflux-impaired pdr1/pdr3 knockout yeast; score 100 = 6 SD above DMSO | calls only at 12 µM | 300,000 compounds, 0.02% hits | AID 1875;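 active = lowest replicate activity score at least 50, where 100 means six control SD above control mean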;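 also: yeast exposed to compound for 9 h at 30 °C; higher score means more reporter readthrough which indicates perturbed polyadenylation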
DYRK1A inh – blocks rat Dyrk1A kinase activity; Q63470; ADP-Glo luminescence, NFATc1 peptide; inhibition, % at 12.5 µM; 310,000 compounds, 0.43% hits; in the data active = inhibition above about 50%;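 also: plate controls were vehicle with enzyme for no effect and no enzyme for full effect; many of its hits are not listed in these tables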
RGS4 act – potentiators or activators of RGS4 | B-score at 10 µM | 310,000 compounds, 0.92% hits | HEK293 M3R/inducible RGS4, carbachol calcium flux Fluo4; hits give low values;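 active = B-score of the integrated calcium signal more than 4 SD below the library mean, with starting fluorescence not abnormally high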;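 also: negative B-score means reduced calcium response which marks RGS4 activation or potentiation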
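test system = HEK293 cells with stable M3R and inducible RGS4 | schedule = recording 10 s baseline at 1 Hz, 100 s post-agonist | technique = Fluo4-AM (2 µM) calcium-flux fluorescence, kinetic read | measure = Agonist-evoked peak-minus-minimum fluorescence over baseline, integrated ratio, B score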
HDAC3 inhib – inhibitors of human histone deacetylase 3; recombinant HDAC3, fluorogenic peptide/trypsin coupled, fluorescence; AID 2718; 320,000 compounds, 0.15% hits; inhibition, % at 8.3 µM; in the data active = inhibition above about 26%, passing the limit was not always enough
Target sequence (O15379 whole entry, looked up): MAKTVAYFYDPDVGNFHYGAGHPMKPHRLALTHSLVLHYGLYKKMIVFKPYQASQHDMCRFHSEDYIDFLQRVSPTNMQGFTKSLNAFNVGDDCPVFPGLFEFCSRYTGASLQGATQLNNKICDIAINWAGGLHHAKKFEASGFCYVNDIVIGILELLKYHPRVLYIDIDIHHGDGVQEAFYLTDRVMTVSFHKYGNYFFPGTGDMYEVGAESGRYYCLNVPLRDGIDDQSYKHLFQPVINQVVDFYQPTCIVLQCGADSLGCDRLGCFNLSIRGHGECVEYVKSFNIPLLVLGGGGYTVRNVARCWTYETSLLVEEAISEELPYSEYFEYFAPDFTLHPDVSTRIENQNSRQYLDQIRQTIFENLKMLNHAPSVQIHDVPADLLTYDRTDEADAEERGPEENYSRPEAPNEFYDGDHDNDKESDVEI
GSK3B inh – human GSK3beta kinase inhibition; activity score (negative = inhibition), % at 10 µM; 300,000 compounds, 0.038% hits; P49841; GST-GSK3beta kinase, ADP-Glo luminescence, 60 min; hits give low values; AID 2097;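 active = more than half of replicate wells score below -50%, meaning over 50% inhibition versus plate controls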;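 also: 0% = median DMSO wells and -100% = median GW8510 positive control wells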
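test system = GST-tagged human GSK3beta kinase, cell-free | reagent = 25 µM ATP with peptide substrate | dosing = one dose of 10 µM per compound | schedule = 60 min reaction, RT | detection = luminescent ADP-Glo measurement of ADP formed | control set = DMSO neutral wells and GW8510 at 20 µM as positive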
hERG rescue – shields human hERG channel from block by proarrhythmic agents; activation (rescue from dofetilide block), less the hit threshold, % at 10 µM; 310,000 compounds, 0.51% hits; CHO-hERG, FluxOR thallium flux, dofetilide IC70 present;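 active = activation above the mean of controls blocked by dofetilide plus 5 SD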;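 also: thallium influx through hERG after potassium depolarization seen as dye fluorescence rise; in these data hits start at about 4.7%; inactives centre near -7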
Numbers without * were called inactive; i = inactive; . = not tested or not shown.

cpd	mol	DYRK1A inh	hERG rescue	RGS4 act	GSK3B inh	PolyA inhibitor	HDAC3 inhib
1	CC(C)(C)C(=O)NC(NC(=S)Nc1sc2c(c1C#N)CCCC2)C(Cl)(Cl)Cl (centres undefined)	8	-21	i	2	i	2
2	C=CCOC(=O)C1=C[C@H](c2csc3ccccc23)C[C@H](OCc2ccc(CO)cc2)O1	-12	-20	i	-1	i	10
3	CNC(=O)c1cc(Oc2ccc(NC(=O)Nc3ccc(Cl)c(C(F)(F)F)c3)cc2)ccn1	2	.	.	.	.	22
4	O=C(Nc1ccc2c(c1)OCCO2)c1cc2sccc2n1Cc1ccccc1	-4	-12	i	0	i	12
5	c1ccc2c(-c3ccncc3)c[nH]c2c1	76*	-7	i	1	i	1
6	N#Cc1ccccc1NC(=O)CN(Cc1ccccc1)Cc1ccccc1	-4	-6	i	-1	i	7
7	COc1ccccc1NC(=O)c1cc(N)cc(C(=O)Nc2ccccc2OC)c1	2	-14	i	2	i	-6
8	CCS(=O)(=O)c1ncc(Cl)c(C(=O)Nc2ccc(C)cc2)n1	-7	-18	i	1	i	0

(further entries)
cpd	mol	DYRK1A inh	hERG rescue	RGS4 act	GSK3B inh	PolyA inhibitor	HDAC3 inhib
9	CCc1ccc(NC(=O)N(Cc2ccco2)C(C)c2cccs2)cc1 (centres undefined)	2	-12	i	1	i	18
10	O=C(c1cc(Sc2cccc(Cl)c2)nc2ccccc12)N1CCN(c2ccccn2)CC1	7	-17	i	-12	.	6
11	Cc1ccc(-c2nn(C(C)(C)C)c3ncnc(N)c23)cc1	0	.	.	.	.	2
12	COc1ccc(-c2csc(NC(=O)c3ccccc3NS(=O)(=O)c3ccc(C)cc3)n2)cc1	-4	-19	i	0	i	-1
13	COc1ccc(C(c2nnnn2Cc2ccc(F)cc2)N2CCN(c3ccccc3)CC2)cc1 (centres undefined)	1	-5	i	0	i	4
14	Cc1nnc(SC(C(=O)Nc2cc(Cl)cc(Cl)c2)c2ccccc2)[nH]c1=O (centres undefined)	-2	-18	i	1	i	-1
15	CN(NS(=O)(=O)c1ccc(Br)cc1)c1nc(C(F)(F)F)nc2ccccc12	0	-22	i	2	i	.
16	CN(c1ccccc1)S(=O)(=O)c1cccc(C(=O)NCCc2c[nH]c3ccccc23)c1	-6	-4	-9.2*	-4	i	3

Next part
cpd	mol	DYRK1A inh	hERG rescue	RGS4 act	GSK3B inh	PolyA inhibitor	HDAC3 inhib
17	C/C=C1\COC(C(=O)NCc2cccc(OC)c2OC)(C(F)(F)F)C=C1C=C1CCCCC1 (centres undefined)	-2	-13	i	-1	i	9
18	CC(C)c1ccc(C(=O)N/N=C/c2cccc(Cl)c2Cl)cc1	2	-9	i	-1	i	4
19	CCOc1ccc(OCC)c(NC(=O)CN2CCN(c3ccc(C)cc3C)CC2)c1	2	-10	i	2	i	-2
20	CCCCCCCNC(=O)C1(CC2CC(c3ccc(Cl)cc3)=NO2)CCNCC1 (centres undefined)	5	-17	i	0	i	3
21	Cc1ccc(Sc2ncccc2COC(=O)Nc2ccccc2)cc1	0	-3	i	0	i	18
22	C=CCNC(=S)Nc1ccc(N2CCOCC2)c(S(=O)(=O)Nc2ccccc2Cl)c1	.	-11	i	.	i	-2
23	CCOc1ccc(OCCSc2nnnn2-c2ccccc2)cc1	5	-5	i	-2	i	4
24	c1ccc(-c2cc3c(N4CCN(c5ccccc5)CC4)ncnc3s2)cc1	6	-10	i	1	i	-21

7 entries drawn at random from the list so far:
cpd	mol	DYRK1A inh	hERG rescue	RGS4 act	GSK3B inh	PolyA inhibitor	HDAC3 inhib
7	COc1ccccc1NC(=O)c1cc(N)cc(C(=O)Nc2ccccc2OC)c1	2	-14	i	2	i	-6
21	Cc1ccc(Sc2ncccc2COC(=O)Nc2ccccc2)cc1	0	-3	i	0	i	18
6	N#Cc1ccccc1NC(=O)CN(Cc1ccccc1)Cc1ccccc1	-4	-6	i	-1	i	7
2	C=CCOC(=O)C1=C[C@H](c2csc3ccccc23)C[C@H](OCc2ccc(CO)cc2)O1	-12	-20	i	-1	i	10
8	CCS(=O)(=O)c1ncc(Cl)c(C(=O)Nc2ccc(C)cc2)n1	-7	-18	i	1	i	0
18	CC(C)c1ccc(C(=O)N/N=C/c2cccc(Cl)c2Cl)cc1	2	-9	i	-1	i	4
5	c1ccc2c(-c3ccncc3)c[nH]c2c1	76*	-7	i	1	i	1

Further records follow:
cpd	mol	DYRK1A inh	hERG rescue	RGS4 act	GSK3B inh	PolyA inhibitor	HDAC3 inhib
25	CCN(CC)c1nc(Nc2ccc([N+](=O)[O-])cc2)nc(N(CC)CC)n1	0	-6	i	-4	i	4
26	COc1ccc(SCC(=O)c2cc(C)c(OC(=S)N(C)C)c(C)c2)cc1	-2	-7	-7*	2	i	0
27	O=C(C1=C(O)C(=O)N(c2nccs2)C1c1ccccc1)c1cc2ccccc2o1 (centres undefined)	.	-54	i	5	i	7
28	N#CC1=C2SCN(Cc3ccccc3)CN2C(=O)CC1c1cccs1 (centres undefined)	8	-11	i	-38	i	.
29	CCN1/C(=C\c2ccc3ccccc3[n+]2CC)Sc2cc(C)ccc21	10	-30	i	-9	.	9

Entries of single compounds, looked up by structure. Order of values: DYRK1A inh, hERG rescue, RGS4 act, GSK3B inh, PolyA inhibitor, HDAC3 inhib
N#CC1=C2SCN(Cc3ccccc3)CN2C(=O)CC1c1cccs1 (centres undefined) as listed: 8, -11, i, -38, i, .
O=C(C1=C(O)C(=O)N(c2nccs2)C1c1ccccc1)c1cc2ccccc2o1 (centres undefined) as listed: ., -54, i, 5, i, 7
CCN1/C(=C\c2ccc3ccccc3[n+]2CC)Sc2cc(C)ccc21 as listed: 10, -30, i, -9, ., 9

An excerpt of these results, as labelled records.
#19 CCOc1ccc(OCC)c(NC(=O)CN2CCN(c3ccc(C)cc3C)CC2)c1
  DYRK1A inh = 2; hERG rescue = -10; RGS4 act = i; GSK3B inh = 2; PolyA inhibitor = i; HDAC3 inhib = -2
#20 CCCCCCCNC(=O)C1(CC2CC(c3ccc(Cl)cc3)=NO2)CCNCC1 (centres undefined)
  DYRK1A inh = 5; hERG rescue = -17; RGS4 act = i; GSK3B inh = 0; PolyA inhibitor = i; HDAC3 inhib = 3

These rows are one share of the data; the hit share may differ from the screen's.
